MgrA-DNA mod = alters Staphylococcus aureus MgrA binding to DNA; fluorescence polarization; inhibition, %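 (about 10 µg/mL by stock and volumes)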; 84,000 compounds, 0.13% hits;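 active = above 50% in either of two replicates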;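 note: 0% = protein plus DNA without compound and 100% = DNA alone without protein; higher means less MgrA bound to DNA so lower polarization; one replicate is shown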
Sa helicase inh = blocks Staphylococcus aureus DNA helicase | purified S. aureus helicase, fluorescence unwinding assay; about half of the hits fall short of the stated cut | inhibition, %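 (tested at about 80 µM)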 | 120,000 compounds, 0.05% hits;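 active = both duplicates at 50% or more, or one of them with a favoured structure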;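 note: 0% = mean of negative control wells and 100% = mean of positive control wells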
Starred values were filed as active, the others as inactive; & = joins results of further samples.

CCOc1ccc(/C=C2/SC(=O)N(CNc3ccccc3Br)C2=O)cc1 was read as MgrA-DNA mod -1.1.
Screening O=C(c1cn(-c2ccccc2)nc1-c1cccs1)N1CCOCC1 returned Sa helicase inh 6.0.
O=C(O)C1CSC2(c3ccccc3)CCC(=O)N12 (stereo unspecified) was read as Sa helicase inh 14.0.
Screening O=C(Nc1ccc(Cl)cn1)c1cccs1 returned MgrA-DNA mod -1.8 and Sa helicase inh 3.0.
O=C(CSc1nc(=O)n2ccccc2n1)OCc1ccccc1 was read as Sa helicase inh 10.0.
For Cc1[nH]nc(Nc2ccccc2)c1N=Nc1ccc(Br)cc1 the results were Sa helicase inh 21.0.
Screening COC(=O)c1ccc(COc2ccc3c(-c4ccccc4)cc(=O)oc3c2C)o1 returned MgrA-DNA mod -1.0 and Sa helicase inh 11.0.
Screening O=C(O)CCC(=O)Nc1cccc2ccccc12 returned Sa helicase inh -16.0.
For Cc1ccc2nc(NC(=O)c3ccccc3F)sc2c1 the results were MgrA-DNA mod -3.3 and Sa helicase inh 16.0.
N=c1sc(C(=O)c2ccccc2)c2scc(-c3ccccc3)n12 was read as MgrA-DNA mod 1.0 and Sa helicase inh 8.0.

Overlap with the part before: three compounds, followed by the next part.
Screening O=C(O)CCC(=O)Nc1cccc2ccccc12 returned Sa helicase inh -16.0.
For Cc1ccc2nc(NC(=O)c3ccccc3F)sc2c1 the results were MgrA-DNA mod -3.3 and Sa helicase inh 16.0.
N=c1sc(C(=O)c2ccccc2)c2scc(-c3ccccc3)n12 was read as MgrA-DNA mod 1.0 and Sa helicase inh 8.0.
O=C(Nc1ccc(N2CCOCC2)nc1)c1c(F)cccc1F was read as MgrA-DNA mod 1.1.
`COc1nc(C)nc2c1sc(=S)n2C` gave Sa helicase inh 4.0.
`Cc1cccc(C)c1NC(=O)C1(NC(=O)C(C)O)CCCC1` (stereo unspecified) gave MgrA-DNA mod 1.1 and Sa helicase inh -18.0.
COc1cccc(Nc2ncnc3nc[nH]c23)c1 was read as Sa helicase inh 9.0.
`O=C(O)c1coc2c1C(=O)CCC2` gave MgrA-DNA mod 0.8.
Screening COc1ccc(C(C#N)N2CCN(C(C#N)c3ccc(OC)c(OC)c3)CC2)cc1OC (stereo unspecified) returned MgrA-DNA mod -2.1 and Sa helicase inh 2.0.
`N=c1oc2ccc(Br)cc2cc1-c1ccccn1` gave MgrA-DNA mod -1.1 and Sa helicase inh -14.0.
Cc1sc(NC(=O)CSc2ccccc2)c(C#N)c1C was read as Sa helicase inh 14.0.
`O=C(c1sc2ccccc2c1Cl)n1cccn1` gave MgrA-DNA mod -4.6 and Sa helicase inh 10.0.
COc1ccc(N2C(=O)c3ccccc3NC2c2cc(OC)c(OC)c(OC)c2)cc1 (stereo unspecified) was read as MgrA-DNA mod 4.4.
`CCSc1ncc(Cl)c(C(=O)Nc2ccccc2)n1` gave MgrA-DNA mod 0.1 and Sa helicase inh 12.0.
Screening CN(C)C(=O)Cn1c(Cl)nc2ccccc21 returned MgrA-DNA mod -1.0 and Sa helicase inh -7.0.
For CC(=O)Nc1ccc(C(=O)NCc2ccncc2)cc1 the results were Sa helicase inh 4.0.
Cc1cccc(NNC(=O)CCc2ccccc2)c1 was read as Sa helicase inh 20.0.
Screening O=C1Nc2ccccc2C1c1nc2ccccc2[nH]c1=O (stereo unspecified) returned MgrA-DNA mod 0.5 and Sa helicase inh -4.0.
For CC1(C)COC(c2sccc2C(=O)N(C(=O)NC2CCCCC2)C2CCCCC2)=N1 the results were MgrA-DNA mod -0.7.
`O=[N+]([O-])c1cnc(-n2cccc2)s1` gave MgrA-DNA mod -0.2.
`COc1cccc(C(C)NC(=O)c2ccccc2OC)c1` (stereo unspecified) gave MgrA-DNA mod 1.9 and Sa helicase inh 3.0.
`Cc1noc(C)c1S(=O)(=O)Nc1ccc(N2CCCCC2)cc1` gave MgrA-DNA mod -1.5.
`O=C(Cc1ccc(-n2cccc2)cc1)N1CCc2ccccc21` gave MgrA-DNA mod 3.6 and Sa helicase inh 8.0.
CC/C(=N\OC(=O)c1cccs1)c1ccc(-c2ccccc2F)cc1 was read as MgrA-DNA mod 4.4.
C=C(NCc1ccncc1)c1ccc(Cl)cc1 was read as MgrA-DNA mod 2.1.
Screening COC(=O)c1[nH]c(CN2C(=O)c3ccccc3S2(=O)=O)c(C(=O)OC)c1C returned Sa helicase inh -3.0.
Screening CC(=O)Nc1ccc(C#N)c(OC(F)F)c1 returned Sa helicase inh -13.0.
Screening O=C(c1cccc(NC2=NC3CS(=O)(=O)CC3S2)c1)N1CCCC1 (stereo unspecified) returned Sa helicase inh -14.0.
Screening CC(=O)N1CCN(CCN=CC2=C(O)CC(c3ccco3)CC2=O)CC1 (stereo unspecified) returned MgrA-DNA mod 3.1 and Sa helicase inh -5.0.
For CCCC1CCC(C2CCC(C#N)CC2)CC1 (stereo unspecified) the results were MgrA-DNA mod 1.1 and Sa helicase inh -6.0.
CCOc1ccc(-c2c(C#N)c(N)n3c(nc4ccccc43)c2C#N)cc1OC was read as MgrA-DNA mod 2.1.
COc1ccc(CNC(=O)C2COc3ccccc3O2)cc1 (stereo unspecified) was read as MgrA-DNA mod 1.1 and Sa helicase inh 6.0.
For CC1=C(C(=O)OCCc2ccccc2)C(c2cc3c(cc2Br)OCO3)NC(=O)N1 (stereo unspecified) the results were MgrA-DNA mod -1.9.
`COc1ccc(NCc2c(C#N)c(C)nn2-c2ccccc2)cc1` gave Sa helicase inh 10.0.
`O=C(CCCn1c(=O)c2cccn2c2cccnc21)NCCc1ccccc1` gave Sa helicase inh -26.0.
`COC(CNc1ncnc2c1c(-c1ccccc1)cn2-c1ccccc1)OC` gave Sa helicase inh -1.0.
CCOC(=O)C1=C(Cn2nnc(C(=O)OC)c2C(=O)OC)NC(=O)NC1c1ccccc1 (stereo unspecified) was read as MgrA-DNA mod 1.9 and Sa helicase inh -9.0.
Cc1ccc(S(=O)(=O)NCC(c2ccccc2)N2CCCCC2)cc1 (stereo unspecified) was read as MgrA-DNA mod -0.7 and Sa helicase inh 5.0.
Screening CC(=O)Nc1ccc2nc3c(=O)n(C4CCCCC4)c(=O)[nH]c3nc2c1 returned Sa helicase inh -93.0.
`COc1ccc(Cl)cc1NC(=O)c1nnn(CC(=O)Nc2c(C)cccc2C)c1N` gave MgrA-DNA mod -0.8 and Sa helicase inh 6.0.
Screening COc1ccc2oc(=O)c(S(=O)(=O)c3ccc(C(C)C)cc3)cc2c1 returned MgrA-DNA mod -0.9 and Sa helicase inh 16.0.
For Cc1cc(N2CCN(c3ccccc3F)CC2)n2nc(C)c(-c3ccc(Cl)cc3)c2n1 the results were Sa helicase inh 1.0.
Screening CN1CCN(C(=O)CCCC(=O)O)CC1 returned MgrA-DNA mod 0.9 and Sa helicase inh 7.0.
CCc1ccn2cc(-c3cc(-c4ccccc4)no3)nc2c1 was read as MgrA-DNA mod -1.1.
Screening CCNc1nc(NCC)nc(SCCOC(=O)Nc2ccccc2)n1 returned MgrA-DNA mod -1.3.
CC(=O)Nc1cccc(C(=O)N2CCCCC2)c1 was read as MgrA-DNA mod -2.8 and Sa helicase inh 6.0.
For C=CCN1C(=O)N(CC=C)c2cccc3cccc1c23 the results were MgrA-DNA mod 2.3 and Sa helicase inh 6.0.
For CC(C(=O)NCc1ccco1)n1c2ccccc2c2cnn(C)c(=O)c21 (stereo unspecified) the results were MgrA-DNA mod 1.1 and Sa helicase inh 5.0.
Screening O=C(ON1C(=O)c2ccccc2C1=O)C1CCCCC1 returned MgrA-DNA mod 7.5 and Sa helicase inh 14.0.
O=C(OCCn1ncc2ccccc2c1=O)c1cccs1 was read as MgrA-DNA mod -2.1.
Screening CCN1CCN(C(=O)C(c2ccccc2)N2Cc3ccccc3C2=O)CC1 (stereo unspecified) returned Sa helicase inh -30.0.
`O=C1/C(=C/c2cc3ccccc3o2)CC/C1=C\c1cc2ccccc2o1` gave MgrA-DNA mod 7.0 and Sa helicase inh -36.0.
`COc1ccccc1N1CCN(C/C(N)=N/O)CC1` gave MgrA-DNA mod 1.1.

Three structures out of the list, arranged by length of the SMILES, largest number first.
`O=C1/C(=C/c2cc3ccccc3o2)CC/C1=C\c1cc2ccccc2o1` gave MgrA-DNA mod 7.0 and Sa helicase inh -36.0.
Screening CCNc1nc(NCC)nc(SCCOC(=O)Nc2ccccc2)n1 returned MgrA-DNA mod -1.3.
`COc1ccccc1N1CCN(C/C(N)=N/O)CC1` gave MgrA-DNA mod 1.1.

The listing continues.
`FC(F)(F)c1cc(-c2nc(=S)[nH][nH]2)cc(C(F)(F)F)c1` gave MgrA-DNA mod 3.1.
For CCOC(=O)N1CCC2(CC1)C(C#N)=C(N)SC(N)=C2C#N the results were MgrA-DNA mod 0.2 and Sa helicase inh -9.0.
`COCC(C)n1c(COc2ccccc2F)nnc1SCC(=O)N(C(C)C)C(C)C` (stereo unspecified) gave Sa helicase inh -12.0.
`CCOc1ccc2nc(NC(=O)c3ccc(S(=O)(=O)N4CC(C)CC(C)C4)cc3)sc2c1` (stereo unspecified) gave MgrA-DNA mod -3.1.
Screening COc1ccc(C(=O)CSc2nc(SCC(=O)c3ccc(OC)cc3)c3ccccc3n2)cc1 returned MgrA-DNA mod -1.4.
Screening c1ccc(CCNc2ncnc3ccsc23)cc1 returned MgrA-DNA mod -1.6.
O=c1cc(NCc2ccco2)[nH]c(=O)n1-c1ccc(Cl)cc1 was read as Sa helicase inh 7.0.
Cc1oc(-c2ccccc2)nc1Cn1c(SCc2cccc(Cl)c2)nc2ccncc21 was read as MgrA-DNA mod -1.4 and Sa helicase inh 14.0.
`Cc1ccc(N=C2NC(=O)/C(=C\c3ccc4c(c3)n(C)c(=O)n4C)S2)cc1` gave MgrA-DNA mod 3.1 and Sa helicase inh 9.0.
Screening CC(/C=N/NC(=O)c1cc(-c2ccc3c4c(cccc24)CC3)n[nH]1)=C\c1ccco1 returned Sa helicase inh 31.0.
For COc1nn2nnnc2c2ccccc12 the results were Sa helicase inh -22.0.
`CCOC(=O)C1CCN(Cc2coc3ccc(C)cc3c2=O)CC1` gave MgrA-DNA mod -0.4 and Sa helicase inh 0.0.
Screening CC(C)N(CCNc1nc2ccccc2c2nc(-c3cccnc3)nn12)Cc1ccco1 returned Sa helicase inh 4.0.
Screening Cc1cc2c3c([nH]c2cc1S(=O)(=O)NCCc1ccco1)CCCC3=O returned Sa helicase inh 7.0.
For COc1ccc(NS(=O)(=O)c2ccc3oc(=S)n(CN4CC(C)OC(C)C4)c3c2)cc1 (stereo unspecified) the results were Sa helicase inh -4.0.
`O=C(CSc1ccc2nnc(-c3ccccc3)n2n1)c1ccccc1` gave Sa helicase inh 10.0.
For CCC(C)NC(=O)Cc1coc2cc(C)ccc12 (stereo unspecified) the results were MgrA-DNA mod 0.7 and Sa helicase inh 17.0.
O=C(O)c1ccc(CN2C(=O)COc3ccccc32)o1 was read as MgrA-DNA mod -1.5 and Sa helicase inh -6.0.
Cc1cc(=O)n(-c2cccc(C(F)(F)F)c2)[nH]1 was read as MgrA-DNA mod -2.3 and Sa helicase inh -1.0.
Screening O=C(Sc1nnnn1-c1ccccc1)c1ccccc1Br returned MgrA-DNA mod 1.3 and Sa helicase inh 1.0.
`Cc1ccc(C)c(S(=O)(=O)NCc2ccccc2)c1` gave Sa helicase inh 21.0.
`CC(=O)Nc1cccc(OCCCN2CNc3c(c(=O)n(C)c(=O)n3C)C2)c1` gave MgrA-DNA mod 3.7.
O=C(O)Cc1cccc2ccccc12 was read as Sa helicase inh 8.0.
For O=C(Nc1ccc2oc(-c3ccncc3)nc2c1)c1cc([N+](=O)[O-])ccc1Br the results were MgrA-DNA mod 1.2.
`O=C(Nc1ccc(-n2nncc2-c2ccccc2)cc1)c1c(F)cccc1F` gave MgrA-DNA mod 0.6 and Sa helicase inh 12.0.
Screening CN(C1CCS(=O)(=O)C1)S(=O)(=O)c1cccc2nsnc12 (stereo unspecified) returned Sa helicase inh -8.0.
For Cc1ccc(-c2nc3ccccc3s2)cc1S(=O)(=O)N1CCCC1 the results were Sa helicase inh -6.0.
Screening Cc1c(Cl)c(=O)oc2cc(OCC(=O)N3CCCC(C)C3)ccc12 (stereo unspecified) returned Sa helicase inh 12.0.
Screening O=C(c1ccc2c(c1)OCO2)c1cn(Cc2ccc(F)cc2)c2cc3c(cc2c1=O)OCO3 returned Sa helicase inh -8.0.
NC(=O)C1CCCN(C(=O)CCC(=O)c2cccs2)C1 (stereo unspecified) was read as Sa helicase inh -8.0.
`O=C1NC2(CCCCC2)Oc2ccccc21` gave Sa helicase inh -22.0.
For CC1=C(C(=O)OCCc2ccccc2)C(c2ccc(OCc3ccccc3)cc2)NC(=O)N1 (stereo unspecified) the results were MgrA-DNA mod -0.8.
For Cc1ccc(-c2n[nH]c(CNC(=O)c3ccc(F)c(F)c3)n2)cc1 the results were MgrA-DNA mod -1.1 and Sa helicase inh 0.0.
Nc1nnc(SCC(=O)n2c3ccccc3c3ccccc32)s1 was read as Sa helicase inh 10.0.
Cc1ccc(CN(C)c2ccc(S(=O)(=O)N3CCCC3)cn2)cc1 was read as Sa helicase inh 8.0.
`Cc1ccc(NC(=O)CC2SC(=Nc3ccc(S(N)(=O)=O)cc3)NC2=O)cc1` (stereo unspecified) gave Sa helicase inh -30.0.
Screening CC(C)(C)NC(=O)N1CCC(Nc2nccc(C(F)(F)F)n2)CC1 returned MgrA-DNA mod 1.1.
For CCNS(=O)(=O)c1ccc(NC(=O)c2ccccc2OCC)cc1 the results were MgrA-DNA mod 1.1 and Sa helicase inh -1.0.
Screening CC(C)C1/C(=N/O)CC(c2ccccc2)NC1c1ccccc1 (stereo unspecified) returned Sa helicase inh 1.0.
`O=c1[nH]c2ccccc2nc1C(F)(F)F` gave MgrA-DNA mod -0.9&-0.5.
For CC(=O)c1ccc(Nc2ccnc3cc(Cl)ccc23)cc1 the results were MgrA-DNA mod 1.8.

Two compounds picked at random from the list so far, as already listed:
For Cc1ccc(-c2n[nH]c(CNC(=O)c3ccc(F)c(F)c3)n2)cc1 the results were MgrA-DNA mod -1.1 and Sa helicase inh 0.0.
`O=c1[nH]c2ccccc2nc1C(F)(F)F` gave MgrA-DNA mod -0.9&-0.5.

Bioassay records (PubChem BioAssay)

An excerpt; rates above refer to the full screens.
